Vaccinia mCherry: qHTS for Stage-Specific Inhibitors of Vaccinia Orthopoxvirus: mCherry Reporter Primary qHTS | Potency, µM (highest dose often 36.5 µM), for the others: top-dose activity change, negative = inhibition, usual class: inhibitors | hit rate 0.63% among 310,000 | AID 720579, 2013 | Vaccinia virus mCherry reporter infection, fluorescence; about a quarter of the inactives have no number; active = well fitted inhibition curve with a large enough effect; inconclusive = small, poorly fitted or top-dose-only effect; inactive = no such curve, though single readings can be large or run the other way; tested in A549 cells; also: nearly all actives have a fitted effect of over 35% in size; inactives centre near -10
Vaccinia Venus: qHTS for Stage-Specific Inhibitors of Vaccinia Orthopoxvirus: Venus Reporter Primary qHTS | hit rate 0.46% among 330,000 | Potency, µM (series often up to 36.5 µM), inactives show at the highest dose activity change, negative = inhibition, hits mostly inhibitors | AID 720580, 2013 | Vaccinia virus Venus reporter expression, fluorescence; active means well fitted inhibition curve with a large enough effect; inconclusive means small, poorly fitted or top-dose-only effect; inactive means no such curve, though single readings can be large or run the other way; tested in A549 cells; also: nearly all actives have a fitted effect of over 30% in size; inactives centre near -10
Numbers without * were called inactive; i = inactive; ? = inconclusive; . = not tested or not shown; [ ] = remark or other dose. % is scaled to controls: 0 for no effect and ±100 for the full control effect; potency is read from the fitted curve at half-maximal effect.

SMILES	Vaccinia mCherry	Vaccinia Venus
Cc1ncc2c(c1CNS(=O)(=O)c1cccs1)CCN(C(=O)/C=C/c1ccc(F)cc1F)C2	-15%	-2%
CCn1c(SCc2ccc(F)cc2)nc2ccccc2c1=O	-15%	-19%
Cc1cc(C)c2c(N)c(C(=O)c3ccc(Cl)cc3)sc2n1	-8%	?
O=C(NCc1nnnn1-c1ccccc1)c1ccc2ccccc2c1	?	-14%
CCCCn1c(SCC(=O)c2c(N)n(C3CC3)c(=O)[nH]c2=O)nc2cc(S(N)(=O)=O)ccc21	i	-10%
COc1ccnc(Oc2ccc(F)cc2)c1C#N	i	-9%
COc1ccccc1Nc1cc(C(=O)NCCCN(C)c2ccccc2)c2ccccc2n1	-23%	-14%
CCOC(=O)c1ccc(NC(=O)c2nc[nH]c2C(=O)N[C@H](C)CO)cc1	-9%	-27%
O=C(NCc1ccccc1F)c1cc(=O)[nH]c2ccccc12	i	-6%
COc1ccc(CNC(=O)CCn2c(=O)c3cccn3c3ccc(F)cc32)cc1OC	-4%	-7%
CN(Cc1ccccc1)C(=O)CSc1nc2ccccc2n1Cc1ccccc1F	-24%	-8%
CN(C)S(=O)(=O)c1ccccc1C#N	i	-7%
Cc1[nH]n(-c2ccccc2)c(=O)c1C=Nc1ccc(S(=O)(=O)N(C)C)cc1	-9%	-9%
CCCn1c(NCc2ccccc2F)nc2ccccc21	-20%	-3%
c1ccc(C2=Nc3c(ccc4ccccc34)C(c3ccncc3)=NN2)cc1	?	-30%
O=C(CSC1=NNC(c2ccccn2)S1)Nc1cccc(Cl)c1 (configuration not stated)	?	?
O=C(CSc1c2c(nc3cc(Cl)ccc13)CCCC2)NCc1ccccc1Cl	-17%	-20%
CN(C(=O)c1cccn(Cc2ccccc2)c1=O)c1ccccc1	-4%	-1%
Cn1c(N)c(C(=O)COC(=O)COc2cc(Cl)c(Cl)cc2Cl)c(=O)n(C)c1=O	i	0%
O=C(O)c1cc[c]([Sb](=[O])([OH])[OH])cc1[N+](=O)[O-]	-1%	-20%
CC(C)CNC(=O)c1c2c(nc3ccccc13)-c1ccccc1CC2	-12%	-6%
Cc1cc(C)cc(NC(=O)c2ccc(S(=O)(=O)N(C)CC3CCCO3)cc2)c1 (configuration not stated)	-12%	-15%
O=C(Nc1ccc(N2CCN(C(=O)c3cccs3)CC2)cc1)c1ccccc1F	-26%	-16%
CCO/C=C1\C(=O)N(c2ccc(OCC)cc2)C(=O)c2ccccc21	-9%	-5%
O=C(CCc1ccccc1)Nc1ncc2c(n1)CCCC2=O	.	-4%
Fc1cccc(Oc2nc3ccccc3n3cccc23)c1	.	0%
COc1ccc(NC(=O)CCNS(=O)(=O)c2cccc(C(C)=O)c2)cc1S(N)(=O)=O	-8%	3%
COC(=O)c1ccccc1C(=O)N1CCCC(C(=O)c2cc(F)ccc2F)C1 (configuration not stated)	-1%	-4%
CCOC(=O)[C@]12CCC=C1N(Cc1ccco1)C(=O)[C@H](CC(=O)NCC13CC4CC(CC(C4)C1)C3)C2	10%	-5%
C1CCC(NC2CCCCC2)CC1	i	-14%
O=C(Nc1cc(C(F)(F)F)ccc1Cl)c1cc(C2CC2)on1	-14%	-9%
O=C(Nc1ccc(N2CCOCC2)cc1)c1ccc([N+](=O)[O-])o1	11µM*	?
CCCC(=O)Nc1nnc(-c2cccc(OCC)c2)s1	-25%	-10%
CC(=CCOc1ccc2ccc(=O)oc2c1)C1=CC(=O)C(C)(C)O1	?	3.5µM*
Nc1ccc(C(=O)OCC(=O)Nc2ccc3c(c2)OCO3)cc1[N+](=O)[O-]	-19%	-2%
CCOC(=O)c1[nH]c2ccccc2c1NC(=O)c1ccccc1OCC	?	-30%
O=C(Nc1ccc(Br)c(Cl)c1)c1ccc(C(=O)Nc2ccc(Br)c(Cl)c2)cc1	-3%	1%
CCC(C)(C)NC(=O)CN(C(=O)CCC(=O)Nc1ccccn1)c1ccc(F)c(Cl)c1	-29%	-28%
O=C(O)Cn1c(-c2ccccc2)nc2ccccc21	i	-13%
Cc1cccc(CSc2nc3cc(C(=O)NC4CCCC4)ccc3c(=O)n2Cc2ccccc2)c1	-5%	3%
CCOC(=O)c1[nH]c(C)c(CCC(=O)Nc2ccccc2OCC)c1C	-9%	-14%
Cc1ncc(CO)c2c1Oc1nc(-c3ccccc3)nc(SCC(=O)Nc3cccc(C(F)(F)F)c3)c1C2	-1%	-1%
CCN1CCN(CCCN(Cc2cccs2)C(=S)Nc2ccccc2C)CC1	-7%	-3%
CN1CCN(C(=O)/C(=C/c2ccccc2Cl)NC(=O)c2ccccc2)CC1	-3%	3%
Cc1ccc2nc(SCc3nnc(-c4cccs4)o3)[nH]c2c1	i	-13%
COC1(OC)N=C(N)C2(C#N)C(c3ccc4c(c3)OCO4)C12C#N (configuration not stated)	.	-15%
CC1CN(S(=O)(=O)c2cccc3nsnc23)CC(C)O1 (configuration not stated)	i	-8%
CCCCOc1ccc(NC(=O)c2cnc(C)cn2)cc1	-1%	?
O=C(NCCCCc1ccccc1)C1CC(c2cccc(F)c2)=NO1 (configuration not stated)	-13%	7%
CS(=O)(=O)N1CCC(C(=O)N2CCN(c3ccc(F)cc3)CC2)CC1	-3%	-9%
(more compounds)
SMILES	Vaccinia mCherry	Vaccinia Venus
CCN1C(=O)c2cccc3c(NC(=O)C4CCCCC4)ccc1c23	-8%	-5%
CCc1nc2ccc(C(=O)NCCCn3ccnc3)cn2c1N(C)C(=O)c1cccc(OC)c1	19%	-8%
Cc1ccc(-n2nc(-c3ccccc3)c3cnc4cc5c(cc4c32)OCO5)cc1C	i	-4%
CSc1ccccc1NC(=O)COc1ccccc1Cl	.	10%
COc1cc(NC(=S)N2CCc3ccccc3C2)cc(OC)c1	-2%	-3%
Cc1cc(C)cc(NC(=O)CSc2nc(=O)n(CCCN3CCOCC3)c3c2CCCC3)c1	-6%	-19%
Cc1nn(Cc2ccc(C(=O)N3CCCC3)o2)c(C)c1[N+](=O)[O-]	-21%	-15%
O=C(Nc1ccc(Oc2ccc3ccccc3c2)cc1)c1ccco1	-17%	-17%
C[C@H](CO)N1C[C@H](C)[C@@H](CN(C)Cc2cccc(C(F)(F)F)c2)OCc2cnnn2CCCC1=O	i	-14%
CCc1nnc(NC(=O)CSc2nc3ccccc3c(=O)n2CCCOC)s1	-16%	-16%
O/C(=C\c1ccc2ccccc2n1)c1ccncc1	-5%	-20%
Cc1ccc(NS(=O)(=O)c2ccc(-c3cc(C)no3)cc2)c(Br)c1	-23%	-21%
Cc1cc(C(=O)N=Nc2c(O)n(C(C)C)c3ccccc23)n[nH]1	.	-7%
CCc1cc(=O)[nH]c(SCC(=O)N2CCC(Cc3ccccc3)CC2)n1	-15%	-14%
O=C(NNC(=O)c1csc(-c2cccnc2)n1)c1ccccc1	-20%	-16%
COc1ccc(-c2nc(C=O)cs2)cc1	6%	10%
Cc1ccc(-c2nc3ccccc3[nH]2)cc1NC(=O)COc1ccccc1[N+](=O)[O-]	-21%[7.34 µM]	-13%[7.34 µM]
CNc1ccc(SC#N)cc1	1%	-5%
CN(C)S(=O)(=O)c1cccc(NC(=O)c2n[nH]c(=O)c3ccccc23)c1	-14%	-8%
CCOc1ccc(-c2c(C)nn3c(C)c(C(=O)NCCc4ccc(Cl)cc4)cnc23)cc1OCC	-11%	-17%
COC(=O)c1sc(NC(=S)NC(=O)c2ccccc2C)nc1C	-17%	-19%
C/C(=N/NC(=S)Nc1ccccc1)c1ccc2c(c1)OCO2	?	-17%
C/C(=N\NC(=O)c1ccc(CN(C)S(=O)(=O)c2ccc(C)cc2)cc1)c1ccc(OC(F)F)cc1	-4%	-22%
Cc1cccc2cc3c(NC(=O)c4ccccn4)nn(C)c3nc12	i	-14%
O=C(NC1CC1)C1=C[C@@H](c2c[nH]c3ccccc23)C[C@@H](OCCCCO)O1	?	-9%
COC(=O)C1=C(C)N(CCc2cc(OC)c(OC)c(OC)c2)C(=O)N[C@H]1c1ccccc1	-1%	2%
COc1nc(Oc2ccc(C(=O)OCC(N)=O)cc2)nc(N(C)C)n1	-3%	13%
CCN(CC)C(=O)NCc1c(C)cc(C)cc1C	-1%	4%
CC(C)Cc1nn2c(=O)cc(COC(=O)c3ccc(NC(=O)C4CCCCC4)cc3)nc2s1	i	-12%
Cn1c(=O)c(=O)n(C)c2cc(S(=O)(=O)N3CCCC3C(=O)NCc3cccnc3)ccc21 (configuration not stated)	-1%	-7%
O=C(c1ccco1)N1CCN=C1SCc1cccc(F)c1	-4%	-7%
CCOC(=O)CNS(=O)(=O)c1ccc(C)cc1	-8%	12%
O=C(NC(CC(=O)N1CCN(c2ccccc2)CC1)c1ccccc1)c1ccccc1Cl (configuration not stated)	-25%	-10%
COC(=O)c1cc(-c2cccc(OC)c2)n[nH]1	-5%	-22%
NS(=O)(=O)c1ccc(NC(=S)NCc2ccccc2Cl)cc1	-21%	-16%
Cc1ccc(S(=O)(=O)/N=C(\N)c2ccc(Cl)cc2)cc1	-4%	-13%
COC(=O)c1sccc1NC(=S)N1CCN(c2ccccc2F)CC1	-4%	-10%
CCOC(=O)c1oc2c(c1C)-c1nn(Cc3cccc(Cl)c3)cc1CC2	-5%	-30%
O=C(Cc1cc(=O)[nH][nH]1)N/N=C/c1cccc(Cl)c1Cl	i	-9%
Clc1ccc(-n2c(SCc3nc4ccccc4[nH]3)nnc2-c2ccncc2)cc1	i	-4%
CCCC[n+]1ccn(-c2nc3ccccc3nc2[N-]S(=O)(=O)c2cccs2)c1	i	6%
CCOC(=O)Cn1c(=O)n(CC2CCCO2)c2nc(-c3ccc(C(C)C)cc3)nc(C(N)=O)c21 (configuration not stated)	-8%	-11%
C=C(C)c1cccc(C(C)(C)NC(=O)Nc2ccc(OC)nc2)c1	-16%	-24%
N#Cc1ccc(C23CC4(C2)[C@H](CN(Cc2ccc(-c5ccccc5)cc2)[C@@H]4c2ccccc2)C3c2ccc(C(F)(F)F)cc2)cc1 (some centres not stated)	i	-7%
Cc1ccccc1-c1nc(CS(=O)(=O)CC(=O)N2CCOCC2)c(C)o1	-20%	-22%
Cc1cccc(NC(=O)CCC(=O)N/N=C/c2ccc(O)cc2O)c1	6.3µM*	-9%
COc1ccc(-c2noc(N3CCC(C(=O)Nc4cccc(OC)c4)CC3)n2)cc1	?	-30%
COc1ccc(S(=O)(=O)N2CCCC2CNC(=O)C(=O)NCc2ccc(C)cc2)cc1 (configuration not stated)	-13%	-19%
CCn1c(SC2CCOC2=O)nnc1-c1ccc(Cl)cc1 (configuration not stated)	i	6%
COc1cc(/C=C2/C(=N)N3N=C(CC(=O)N4CCOCC4)SC3=NC2=O)ccc1OCc1ccc(F)cc1	3%[7.34 µM]	15%[7.34 µM]

Compounds above containing a CF3 group, in the order listed:
SMILES	Vaccinia mCherry	Vaccinia Venus
O=C(Nc1cc(C(F)(F)F)ccc1Cl)c1cc(C2CC2)on1	-14%	-9%
Cc1ncc(CO)c2c1Oc1nc(-c3ccccc3)nc(SCC(=O)Nc3cccc(C(F)(F)F)c3)c1C2	-1%	-1%
C[C@H](CO)N1C[C@H](C)[C@@H](CN(C)Cc2cccc(C(F)(F)F)c2)OCc2cnnn2CCCC1=O	i	-14%
N#Cc1ccc(C23CC4(C2)[C@H](CN(Cc2ccc(-c5ccccc5)cc2)[C@@H]4c2ccccc2)C3c2ccc(C(F)(F)F)cc2)cc1 (some centres not stated)	i	-7%

Continuation.
SMILES	Vaccinia mCherry	Vaccinia Venus
O=C(NCCc1ccccc1)c1cc(-c2ccc3c(c2)OCO3)on1	-14%	4%
CCOC(=O)CNCCC(=O)c1ccc(Br)cc1	-12%	-5%
O=C1C(c2ccccc2)=C(N2CC2)c2ccccc21	.	-21%
Cc1ccc(NC(=O)COc2ccc(C(=O)NCCc3ccccc3)cc2)cc1	-8%	-13%
COc1ccccc1N1CCN(S(=O)(=O)c2ccc(F)c(C(=O)Nc3ccc(Cl)cc3C(F)(F)F)c2)CC1	i	-17%
O=C(c1ccc(S(=O)(=O)N2CCCC2)cc1)N1CCN(c2cccc(Cl)c2)CC1	-9%	-25%
O=C(COC(=O)C1(c2ccccc2F)CCCC1)N1CCNC1=O	-19%	-3%
CN(CC(=O)Nc1ccccc1Cl)C(=O)c1ccc(COc2ccccc2)cc1	-4%	-20%
CCOC(=O)c1cnc2ccc(OCC)cc2c1N1CCN(C)CC1	.	-16%
Cc1ccc(C(=O)COC(=O)[C@@H](NC(=O)c2ccco2)C(C)C)s1	i	-14%
O=C(COC(=O)c1ccc([N+](=O)[O-])s1)c1ccc[nH]1	i	-3%
CN(C)c1ccc(CNc2nc(-c3ccco3)nn2C(=O)c2cccc([N+](=O)[O-])c2)cc1	-10%	-9%
Oc1ccc(-c2nc(-c3ccccc3)c(-c3ccc(Br)cc3)[nH]2)cc1	?	?
O=S(=O)(c1ccccc1)n1cc(-c2cccc3nccn23)c2ccccc21	9%	-19%
CC(=O)c1ccc(N2CCN(C3CCC(C(C)(C)C)CC3)CC2)cc1 (configuration not stated)	-15%	-8%
Cc1ccccc1NC(=O)/C(C#N)=C/c1ccc(-c2ccc(Cl)c(C(=O)O)c2)o1	i	2%
Cc1ccn(-c2ccc(NC(=O)c3cccs3)cc2)n1	-5%	1%
Cc1noc(C)c1S(=O)(=O)N1CCC(C(=O)N2CCN(c3ccccc3Cl)CC2)CC1	-16%	-15%

In another format: results already given.
mol | Vaccinia mCherry | Vaccinia Venus
Cc1noc(C)c1S(=O)(=O)N1CCC(C(=O)N2CCN(c3ccccc3Cl)CC2)CC1 | -16% | -15%
Oc1ccc(-c2nc(-c3ccccc3)c(-c3ccc(Br)cc3)[nH]2)cc1 | ? | ?
CN(C)c1ccc(CNc2nc(-c3ccco3)nn2C(=O)c2cccc([N+](=O)[O-])c2)cc1 | -10% | -9%
Cc1ccn(-c2ccc(NC(=O)c3cccs3)cc2)n1 | -5% | 1%
